# VDR inhibitor – Inhibitors of the vitamin D receptor (VDR): qHTS; Vitamin D3 receptor (Homo sapiens), P11473; VDR-SRC2-3 peptide fluorescence polarization, 2 h; Potency, µM, inactives show max response, negative = inhibition, usual class: inhibitors; 400,000 compounds, 0.93% hits; AID 504847, 2011; active means well fitted inhibition curve with a large enough effect; inconclusive means small, poorly fitted or top-dose-only effect, or another doubt; inactive means no such curve, though single readings can be large or run the other way; further: series mostly up to about 120 µM
# Target sequence (P11473 whole entry, looked up): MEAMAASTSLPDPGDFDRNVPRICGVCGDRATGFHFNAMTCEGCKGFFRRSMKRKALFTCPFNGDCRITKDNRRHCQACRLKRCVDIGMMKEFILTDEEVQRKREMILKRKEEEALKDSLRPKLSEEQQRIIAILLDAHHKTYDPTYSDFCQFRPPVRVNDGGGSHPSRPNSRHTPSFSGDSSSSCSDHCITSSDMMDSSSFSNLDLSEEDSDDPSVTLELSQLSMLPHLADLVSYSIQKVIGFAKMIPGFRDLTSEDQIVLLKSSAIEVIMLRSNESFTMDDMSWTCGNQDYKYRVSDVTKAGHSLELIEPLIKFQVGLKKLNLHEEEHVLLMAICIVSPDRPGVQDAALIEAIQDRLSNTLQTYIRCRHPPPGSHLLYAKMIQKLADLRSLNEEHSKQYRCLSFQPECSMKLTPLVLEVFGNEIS
#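 Compounds are added to VDR with labelled SRC2-3 coactivator peptide and held 2 h at room temperature. Inhibition of the VDR–peptide interaction is then read as a change in fluorescence polarization.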
# An asterisk follows results filed as active; ? = inconclusive. On the % scale 0 is the no-effect control and ±100 the full control effect; potency means the concentration at half of the fitted maximal effect. Not all compounds are listed; rates above refer to the full screens.
SMILES	VDR inhibitor
CC(=O)Nc1ccc(S(=O)(=O)N(C)CC(=O)Nc2cccc(S(=O)(=O)N3CCCC3)c2)cc1	19%
CCOc1ccc(CNC(=O)c2ccc(Sc3ccc(C)cc3)c(NC(C)=O)c2)cc1OC	-8%
CCCn1cc(SCC(=O)NCc2ccc3c(c2)OCO3)c2ccccc21	17%
COC(=O)CCCC1=CC2=C(c3ccccc3)C(=O)C(C)(OC(=O)C3CCCC3)C(=O)C2=CN1c1ccc(OC)cc1 (stereo not drawn)	-2%
NC(=O)c1ncn([C@@H]2O[C@H](CNCc3ccc(OCC(=O)Nc4ccccn4)cc3)[C@@H](O)[C@H]2O)n1	-15%
Cc1nn2c(c1-c1ccccc1)NC1=C(C(=O)CCC1)C2c1ccccc1 (stereo not drawn)	10%
O=C(N/N=C/c1cccc(Cl)c1)C(c1ccncc1)N1CCOCC1 (stereo not drawn)	13%
COc1ccc(OC)c(C(=O)NC(CC(N)=O)c2ccc(N3CCCCCC3)c([N+](=O)[O-])c2)c1 (stereo not drawn)	-14%
COc1ccc(CCN(C)CC(=O)Nc2cc(C)nc3ccccc23)cc1OC	-2%
CC(C)c1ccc(S(=O)(=O)c2cc3cc(Br)ccc3oc2=O)cc1	1%
COC(=O)c1cccc(NC(=O)NC23CC4CC(CC(C4)C2)C3)c1	-2%
CCCCC(=O)Nc1cc(-c2nc3ccccc3o2)ccc1OC	7%
C=CCN1C(=O)CN=C1Nc1ccc(OC)cc1OC	-10%
CCCNC(=O)c1c(O)c2c([nH]c1=O)CCCC2	-7%
COc1ccc(NC(=O)N2CCC3(CC2)CCN(C(=O)c2csnn2)CC3)cc1	5%
COc1ccc(CNC(=O)c2ccc3c(c2)CCN3S(=O)(=O)c2ccccc2)cc1	11%
O=C(CCNS(=O)(=O)c1ccc(F)c(F)c1)NCCN1CCOCC1	9%
Cn1cc(/C=N/NC(=O)COc2ccccc2[N+](=O)[O-])c2ccccc21	-2%
CCC(C(=O)NCCc1ccccc1)n1nc(C)n2c(cc3sccc32)c1=O (stereo not drawn)	15%
S=C(NCc1ccco1)N/N=C/c1ccccc1Cl	-18%
CCc1cccc2c(-c3ccccc3)nc(SCC(=O)Nc3ccccc3)nc12	8%
Clc1ccccc1CSc1nncn2c1cc1occc12	-1%
COc1ccc(Br)cc1S(=O)(=O)NCCCN1CCOCC1	4%
CC1(C)CC(=O)N(CC(=O)NC2CCCC2)c2ccccc2S1(=O)=O	2%
Cc1ccc(CN=c2c([N+](=O)[O-])nn(-c3ccc4c(c3)OCCO4)n2O)cc1	-23%
Cc1ccc2nc(N(Cc3cccnc3)C(=O)COc3ccccc3)sc2c1	10%
CCOc1ccc(C(=S)NC2CCCCC2)cc1OC	50µM*
COc1ccc(COC(=O)CN2C(=O)NC3(CC(C)CC(C)(C)C3)C2=O)cc1F (stereo not drawn)	19%
O=C(NN1CCOCC1)c1cc(-c2cccc(Cl)c2)nc2ccccc12	18%
C/C(=N/NC(=O)CN1CCN(Cc2ccccc2Cl)CC1)c1cccnc1	-12%
O=C(O)CCc1ccc(-c2ccc(Br)cc2)n1-c1ccccc1O	-10%
Cc1ccc(/C=N/c2sc3c(c2C(N)=O)CCCC3)o1	-17%
Cc1cccc(C)c1OCc1cc(=O)n2c(-c3ccccc3)csc2n1	-20%
CCOC(=O)C1(CCCc2ccccc2)CCN(C(=O)CCc2cnccn2)CC1	-15%
COc1ccc(NS(=O)(=O)c2cccc3nsnc23)cc1OC	-6%
CCOc1cc(/C=C2\C(=O)N(c3ccc(C(N)=O)cc3)N=C2C)ccc1OC(=O)c1cccs1	50µM*
COC(=O)c1ccccc1NC(=O)C1CC(c2ccccc2O)=NO1 (stereo not drawn)	5%
CC(C)CN(C(=O)C1CCC1)c1c(N)n(Cc2ccccc2)c(=O)[nH]c1=O	20%
COCCn1c(=O)c(-c2cn(C)c3ccccc23)nc2cnc(Oc3cccc(Cl)c3)nc21	6%
COC(=O)[C@]1(Cc2ccccc2)N[C@H](CN(C)C(=O)c2ccccc2)[C@@H]2C(=O)N(Cc3ccccc3)C(=O)[C@@H]21	-6%
CC(Sc1ccccc1)C(=O)N(CCC#N)Cc1cccnc1 (stereo not drawn)	-12%
C[C@]12c3[nH]c4ccccc4c3CCN1C(=O)C(CC(=O)NCCc1ccccn1)C[C@@H]2C(=O)N1CCOCC1 (stereo partly drawn)	-2%
c1ccc(-c2csc(NC3=NCCCCC3)n2)cc1	-11%
O=C(CCSc1ccccc1)Nc1ncccn1	-4%
OC(c1nnc(-c2ccccc2)o1)c1cccs1 (stereo not drawn)	-10%
CCOC(=O)C1CCN(C(=O)c2ccccc2NS(=O)(=O)c2cc(C)ccc2C)CC1	-5%
CCOC(=O)/C(=N\Nc1ccccc1Cl)N1CC(C)OC(C)C1 (stereo not drawn)	-2%
COc1ccc(C2=NOC(C(=O)Nc3cccnc3)C2)cc1 (stereo not drawn)	12%
CN1CCN(c2ncnc3ccc(-c4ccc(C(=O)N(C)C)cc4)cc23)CC1	-1%
CC(=O)Nc1ccc(NC(=O)C(C)OC(=O)[C@@H]2CCCN2C(=O)c2cccs2)cc1 (stereo partly drawn)	-14%
O=C(NC1CC1)C1=C[C@@H](c2ccc3c(c2)OCO3)C[C@@H](OCCCCO)O1	-9%
CCN(Cc1ccc(OC)c(F)c1)C(=O)C1CCCO1 (stereo not drawn)	14%
CCC1CCCCN1C(=O)c1nn(-c2ccc(OC)cc2)c(=O)c2c1c1ccccc1n2C (stereo not drawn)	-3%
COc1ccc(-c2nc(CCNC(=O)c3c(F)cccc3Cl)cs2)cc1	-2%
COc1cc2c(cc1OC)[C@@H]1C(=O)c3ccc4c(c3O[C@@H]1CO2)C=CC(C)(C)O4	-17%
CCc1noc(C)c1C(=O)N1CCN(S(=O)(=O)c2cc(C)ccc2C)CC1	21%
COc1cccc(C(c2sc3nc(C)nn3c2O)N2CCN(c3ccccc3F)CC2)c1 (stereo not drawn)	-10%
COc1cc(NC(=O)CCc2nnc3ccc(N4CCOCC4)nn23)cc(OC)c1OC	11%
CCCCNc1c(-c2ccc(-c3ccc(C(C)=O)cc3)c(OC)c2)nc2cnccn12	17%
COc1ccc(N2C(=O)CC(N3CCN(C4CCc5ccccc5C4)CC3)C2=O)cc1 (stereo not drawn)	4%

# Reformatted with each value named: entries from further up.
CCC1CCCCN1C(=O)c1nn(-c2ccc(OC)cc2)c(=O)c2c1c1ccccc1n2C (stereo not drawn)
- VDR inhibitor: -3%

COc1ccc(-c2nc(CCNC(=O)c3c(F)cccc3Cl)cs2)cc1
- VDR inhibitor: -2%

COc1cc2c(cc1OC)[C@@H]1C(=O)c3ccc4c(c3O[C@@H]1CO2)C=CC(C)(C)O4
- VDR inhibitor: -17%

# The list goes on:
SMILES	VDR inhibitor
CC(OC(=O)C1=NN(c2ccccc2)C(=O)CC1)C(=O)NC1CCCCC1C (stereo not drawn)	6%
CCOC(=O)C1=C(C(=O)OCC)N(CC)CCC1=O	-8%
CCCCN1CC(O)=C(c2nc3ccccc3s2)C1=N	-12%
CC(=O)c1ccc(N2C(=O)C3C(C2=O)C(C(=O)c2ccc(Cl)cc2)N2CCCC32)cc1 (stereo not drawn)	-17%
CC(C)(C)c1ccc(S(=O)(=O)n2c(CN3CCOCC3)nc3ccccc32)cc1	-18%
Cc1ccc(NC(=O)c2c(C)nc3sc(C(=O)Nc4ccc(F)cc4)c(N)c3c2-c2ccccc2Cl)c(C)c1	6%
CC(C)[C@H](NC(=O)c1ccccc1F)C(=O)NCCc1ccccc1	15%
COC(=O)c1c(NC(=O)CCCC(=O)O)sc(C)c1C	-13%
O=C(O)CC1C(=O)NCCN1C/C=C/c1ccccc1 (stereo not drawn)	-8%
Cc1ccc(C2NC(=O)NC(O)(C(F)(F)F)C2C(=O)c2ccccc2)o1 (stereo not drawn)	1%
CCC(C(=O)NC1CCCCC1)n1nc(C)c2c(C)n(-c3ccccc3)nc2c1=O (stereo not drawn)	-5%
Cn1c(=O)c2c(O)c(C=Nc3ccc(F)cc3)c(=O)n(C)c2n(C)c1=O	11%
CC(C)(C)N=C1NN=C(c2ccc(S(=O)(=O)N3CCCCC3)cc2)CS1	3%
Cc1cccc(-c2ccc(C=Nc3c(C)n(C)n(-c4ccccc4)c3=O)o2)c1	3%
Cc1ccc2nc(-c3cccc(NC(=O)c4ccc5c(c4)OCCO5)c3)oc2c1	9%
COC(=O)CCC(=O)OC1(C)C(=O)C2=CN(Cc3ccc(OC)cc3)C(c3ccc(OC)cc3)=CC2=C(Br)C1=O (stereo not drawn)	?
CC1CCN(CC(=O)Nc2cccc(Cl)c2)CC1	0%
O=C(CN1CCc2ccccc21)Nc1ccc2c(c1)OCCCO2	-7%
CCOC(=O)c1ccccc1NC(=S)N1CC(C)CC(C)C1 (stereo not drawn)	-5%
C/C(=N\NC(N)=S)c1cc(-c2ccccc2)c(-c2ccccc2)s1	-24%
COc1ccc(Nc2nc(-c3ccc4c(c3)NC(=O)CO4)cs2)cc1	-12%
Cc1ccc(/C=N/NC(=S)N2CCOCC2)cc1	-14%
Cc1ccc(CN2C(=O)C3CCCN3c3ncccc32)cc1 (stereo not drawn)	-5%
Cc1cc(C)cc(NC(=O)C2CCN(c3nc(C)cc(C)n3)CC2)c1	6%
CCCS(=O)(=O)N1CCN(C2CCC(C)CC2)CC1 (stereo not drawn)	-7%
Cc1cc(NCCCn2ccnc2)n2nc(C)c(-c3ccc(Cl)cc3)c2n1	10%
CCc1cc2c(cc3c(=O)n(CC(=O)NC4CCCCC4)ncn32)s1	1%
Oc1ccc(C[C@H]2CNCCN2CCc2cccc(F)c2)cc1	-16%
COc1ccc(NC(=O)CSc2ccc(NC(C)=O)cc2)cc1S(=O)(=O)N1CCCCC1	4%
COc1ccccc1CNC(=O)c1ccc(N2CCCC2)c(NC(=O)NCc2ccc(C)cc2)c1	2%
COCCCNC(=O)c1cnn(-c2ccccc2Cl)c1C1CCN(C(=O)OC(C)(C)C)CC1	23%
Cc1ccc(S(=O)(=O)CCC(=O)N2CCc3ccccc32)cc1	-7%
CC(C)c1ccc(/C=C/C(=O)NNC(=O)c2cccnc2)cc1	-12%
COc1ccccc1CCNC(=O)CCn1c(=O)oc2ccccc21	21%
Cc1cccc(N2CCN(C(=O)C3CCN(S(=O)(=O)c4c(C)noc4/C=C/c4ccccc4F)CC3)CC2)c1C	3%
Cc1ccc(N2CN=c3s/c(=C\c4ccccn4)c(=O)n3C2)cc1	14%

# The final seven compounds of the section above lead into the next:
SMILES	VDR inhibitor
COc1ccccc1CNC(=O)c1ccc(N2CCCC2)c(NC(=O)NCc2ccc(C)cc2)c1	2%
COCCCNC(=O)c1cnn(-c2ccccc2Cl)c1C1CCN(C(=O)OC(C)(C)C)CC1	23%
Cc1ccc(S(=O)(=O)CCC(=O)N2CCc3ccccc32)cc1	-7%
CC(C)c1ccc(/C=C/C(=O)NNC(=O)c2cccnc2)cc1	-12%
COc1ccccc1CCNC(=O)CCn1c(=O)oc2ccccc21	21%
Cc1cccc(N2CCN(C(=O)C3CCN(S(=O)(=O)c4c(C)noc4/C=C/c4ccccc4F)CC3)CC2)c1C	3%
Cc1ccc(N2CN=c3s/c(=C\c4ccccn4)c(=O)n3C2)cc1	14%
Cc1ccc(-c2ccnc3nc(-n4cccc4)nn23)o1	?
O=S(=O)(c1ccccc1)[C@@]1(c2ccc(Br)cc2)C[C@@H]2ON=C(c3cccc(Br)c3)[C@@H]2C1	-28%
CC(=O)Nc1ccc2nc(SCC(=O)O)sc2c1	7%
COc1cc2c(cc1OC)C(COc1ccc3c(C)cc(=O)oc3c1)N(C(=O)c1ccc(Cl)cc1)CC2 (stereo not drawn)	13%
CC1(C)C2CCC1(CS(=O)(=O)N1CCN(c3ccccc3F)CC1)C(=O)C2 (stereo not drawn)	9%
CC(C)n1ncc2c(C(=O)Nc3cccc(C#N)c3)cc(C3CC3)nc21	23%
COc1ccc(Br)cc1CN1CCC(N2CCCC2)CC1	-18%
Cc1ccc(C2=Nc3ccccc3N(CC(=O)NCc3ccc(Cl)cc3)C(=O)C2)cc1C	7%
COc1ccc(-c2csc(N=C(N)N)n2)cc1	8%
Cc1ccc(Cl)cc1NC(=O)NCCN1CCCCC1	-1%
CC(C)Oc1ccc(C2CC(=O)N(C)C2=O)cc1 (stereo not drawn)	4%
COc1ccc(NC(=O)CNc2cc(S(=O)(=O)N3CCOCC3)ccc2N2CCOCC2)c(OC)c1	-5%
Cc1ccc(C(=O)c2cn(Cc3ccccc3)c3c(F)cc(F)cc3c2=O)cc1	9%
CNc1ccccc1C(=O)OCC(=O)c1ccc(F)cc1	-8%
COc1cc(OC)cc(C(=O)NNS(=O)(=O)c2ccc(F)cc2)c1	-9%
CCOC(=O)C1=C(CS(=O)(=O)c2c(C)cc(C)cc2C)NC(=O)NC1c1cccc(OC)c1 (stereo not drawn)	?
COc1cc(OC)cc(C(=O)OCC(=O)NC2CCCCCC2)c1	-21%
COCCn1c(SCC(=O)Nc2ccc(C(F)(F)F)cc2)nc2c([nH]c3ccccc32)c1=O	2%
Cc1ccc(S(=O)(=O)c2nc(S(C)(=O)=O)sc2N2CCC(C(N)=O)CC2)cc1	0%
COc1cc(/C=N/NC(=O)c2ccccc2NS(=O)(=O)c2cccs2)ccc1O	27%
CCOc1ccc(N2C(=O)CC(NC3CCCCNC3=O)C2=O)cc1 (stereo not drawn)	7%
COc1ccccc1C(=O)COC(=O)c1cccs1	-14%
CCc1ncnc2cc(OC)c(OC)cc12	-2%
